From PubChem BioAssay
Six1-Eya2 blk: Six1/Eya2 interaction inhibition; Q15475+O00167; AlphaScreen GST-Six1/His-Eya2 binding, biochemical; active compounds read low; control for the full effect not named in the record; activity change, % (test concentration not listed); hit rate 0.56% among 360,000; AID 651725; in the data active = activity change below about -65%; inconclusive = about -30% to -65%; inactive = above about -30%; note: % is set by controls: 0 for no effect and ±100 for the full control effect
Target sequence (O00167 whole entry, looked up): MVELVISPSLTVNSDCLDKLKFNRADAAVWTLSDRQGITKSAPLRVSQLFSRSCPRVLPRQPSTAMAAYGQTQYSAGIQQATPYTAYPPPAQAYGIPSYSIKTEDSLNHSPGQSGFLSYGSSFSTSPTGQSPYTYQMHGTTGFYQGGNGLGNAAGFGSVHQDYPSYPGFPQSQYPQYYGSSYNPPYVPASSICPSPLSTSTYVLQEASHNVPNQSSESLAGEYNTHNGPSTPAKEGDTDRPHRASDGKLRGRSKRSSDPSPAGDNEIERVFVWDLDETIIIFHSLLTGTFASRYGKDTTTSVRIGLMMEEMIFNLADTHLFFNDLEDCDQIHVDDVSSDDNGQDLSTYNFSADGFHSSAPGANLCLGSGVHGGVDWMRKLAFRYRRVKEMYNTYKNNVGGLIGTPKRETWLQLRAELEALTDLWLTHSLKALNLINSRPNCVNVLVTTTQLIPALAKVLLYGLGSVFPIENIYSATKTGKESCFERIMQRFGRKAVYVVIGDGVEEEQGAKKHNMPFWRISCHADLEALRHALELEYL
Target sequence (Q15475 whole entry, looked up): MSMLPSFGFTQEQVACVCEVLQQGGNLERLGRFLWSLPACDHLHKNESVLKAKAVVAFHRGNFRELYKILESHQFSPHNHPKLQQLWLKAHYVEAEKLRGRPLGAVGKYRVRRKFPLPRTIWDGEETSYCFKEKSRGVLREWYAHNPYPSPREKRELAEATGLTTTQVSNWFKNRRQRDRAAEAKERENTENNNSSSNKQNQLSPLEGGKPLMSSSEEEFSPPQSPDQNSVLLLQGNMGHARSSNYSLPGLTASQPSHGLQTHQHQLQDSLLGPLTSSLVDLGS
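AlphaScreen with GST-Six1 and His-Eya2 (5X mix: 250 nM and 500 nM), glutathione donor and nickel acceptor beads; buffer 50 mM Tris pH 8.0, 300 mM NaCl, 1 mM TCEP; 1 h at 37 C in the dark.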
D2 PAM: positive allosteric modulators of human D2 dopamine receptor | P14416 | potentiation, % (test concentration not listed) | hit rate 0.23% among 360,000 | AID 624464 | DiscoveRx D2 beta-arrestin cells, luminescence, 90 min; 100% = 57 uM dopamine signal; active = potentiation of 50% or more; inconclusive = 30% to 50%; inactive = 30% or less;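 note: compound concentration not given in the record; tested on top of an EC20 dose of dopamine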
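PathHunter beta-arrestin assay in DiscoveRx D2 cells. Compounds were added with an EC20 of dopamine (50 nM final) for 90 min at 37 deg C. Luminescence was read 1 h after detection reagent, with 57 uM dopamine as the EC100 control.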
PINK1 expr mod: PINK1 expression modulation; PINK1 immunofluorescence, high-content cytometry, 24 h; Potency, µM (series often up to 76.6 µM), inactives show at the top dose activation (PINK1 increase), most hits filed as activators; hit rate 0.2% among 410,000; AID 624263; active = well fitted activation curve with a large enough effect; inconclusive = small, poorly fitted or top-dose-only effect; inactive = flat fitted curve, though single readings scatter; cell line not stated here;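 note: potency is the fitted concentration of half-maximal effect; % of control where 0% means no effect; nearly all actives have a fitted effect of over 65% in size; a mitochondrial uncoupler was the plate control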
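A stable cell line was treated with compounds at 5 concentrations for 24 hours, with CCCP as control. PINK1 levels and mitochondrial localization were measured by immunofluorescence with mitochondrial, cell and nuclear markers after fixation, read by laser-scanning cytometry.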
D2 ag: activates the human D2 dopamine receptor. P14416. hit rate 0.084% among 360,000. activation, % (test concentration not listed). AID 624465. DiscoveRx PathHunter D2 beta-arrestin, luminescence, 90 min; 100% = 57 uM dopamine signal; in the data active = activation above about 40%; inconclusive = about 15% to 40%; inactive = below about 15%; note: compound concentration not given in the record; the text of the record calls up to 30% inactive
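Agonist mode: compounds alone added to overnight-plated D2 PathHunter cells for 90 min at 37 C, with 57 uM final dopamine (EC100) defining full response. Beta-arrestin recruitment detected by chemiluminescent reagent, read after 1 h at ambient temperature.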
TRPML1 inh: blocks the human TRPML1 channel; Q9GZU1; TRPML1-inducible cells, Ca2+ dye fluorescence, FDSS; active compounds read low; inhibition of EC80 agonist-evoked calcium signal; activity change, negative = inhibition, % (no concentration beside the values); hit rate 0.02% among 390,000; AID 624415; in the data active means activity change below about -50%; inconclusive means about -30% to -50%; inactive means above about -30%;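 note: stimulus is agonist 54-4 at its EC80 concentration; % is set by controls: 0 for no effect and ±100 for the full control effect; compound concentration not given in the record; the text of the record puts the active cut at -80%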
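TRPML1-DL cells, Tet-induced overnight (~16 h, 37 °C) at 1,500 cells/well, were loaded with Ca8 no-wash dye plus quencher for 45-90 min at room temperature. Compounds were pinned during FDSS kinetic reading; agonist 54-4 at EC80 (4 uM final) then added.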
TRPML1 ag: human mucolipin-1 channel agonism; TRPML1-expressing cells, Ca2+ dye fluorescence, FDSS; host cell line not named in the record; reference of the full effect not given here; hit rate 0.12% among 410,000; Q9GZU1; activation, % (concentration not given with the values); in the data active = activation above about 50%; inconclusive = about 30% to 50%; inactive = below about 30%; note: 0% is about no effect; the text of the record puts the active cut at 80%
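Cells: TRPML1-DL, 1X Tet inducer, ~16 h at 37 degrees C/5% CO2. Dye: ABD Ca8 no-wash + quencher, 45-90 min RT. Read: 10 s baseline, compound add, 110 s agonist phase; 54-4 EC80 (4uM final), 110 s antagonist phase.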
* = called active by the depositor; ? = inconclusive; · = not tested or not shown; & = joins results of further samples; [ ] = another dose, or the depositor's remark. Not a hit list; about 1% have a hit in one of these screens.

SMILES	Six1-Eya2 blk	D2 PAM	PINK1 expr mod	D2 ag	TRPML1 inh	TRPML1 ag
Cc1ccccc1NS(=O)(=O)c1ccc2[nH]cc(C(=O)N(C)Cc3ccco3)c(=O)c2c1	-24	15	-2.4%	-3.4	-8	-0.6
O=C1C2CC=CCC2C(=O)N1c1ccc(NCCc2ccc(O)cc2)c([N+](=O)[O-])c1 (stereo unspecified)	?	-13	-0.2%	-1.2	31	0.3
O=S(=O)(c1ccccc1)[C@@]1(c2ccccc2)C[C@@H]2ON=C(c3cccc(Br)c3)[C@@H]2C1	1	2	2.2%	0.0	-2	-0.9
CC(=O)Nc1ccc2c(CSc3nnc(N)s3)cc(=O)oc2c1	-4	-7	1.2%	-0.8	35	0.3
CSc1ccc(-c2cc3c(c4c2ccn4C)C2CCC3O2)cc1 (stereo unspecified)	-20	-8	1.5%	-4.2	·	-0.2
CN(Cc1ccccc1)C(=O)c1ccc2sc([C@@H]3O[C@H](CO)[C@H](O)[C@H](O)[C@H]3O)nc2c1	4	-12	3.1%	-6.3	-6	0.5
Cc1ccc(C2=NNC(c3ccc(Cl)cc3)=Nc3ccccc32)o1	-22	-14	3.3%	-0.7	1	-0.2
Cc1ccc2[nH]c(=O)c(CN(Cc3ccco3)S(=O)(=O)c3c(C)ccc4nsnc34)cc2c1	-1	6	·	-0.8	-12	1.1
CCCCN(C)C(=O)C1CCC(CNS(=O)(=O)c2ccc3c(c2)CC(C)N3C(C)=O)CC1 (stereo unspecified)	2	1	-0.4%&2.2%	1.9	-5&0	-1.3&1.3
C[C@H](CO)N1C[C@H](C)[C@@H](CN(C)C)Oc2c(NC(=O)C3CC3)cccc2C1=O	?	-3	-0.1%	-2.2	-12	-0.5
COc1ccc(CN(Cc2nc3ccccc3c(=O)[nH]2)C(=O)NC2CCCCC2)cc1	-2	18	-1.2%	-0.6	-5	0.3
CCOc1ccc(N(CC)S(=O)(=O)N2CCCC(C(=O)Nc3ccc(NC(C)=O)cc3)C2)cc1 (stereo unspecified)	·	·	-1.5%	·	-12	-0.1

Results in PINK1 expr mod, TRPML1 ag and TRPML1 inh, for five of the compounds above:
Molecule | PINK1 expr mod | TRPML1 ag | TRPML1 inh
CN(Cc1ccccc1)C(=O)c1ccc2sc([C@@H]3O[C@H](CO)[C@H](O)[C@H](O)[C@H]3O)nc2c1 | 3.1% | 0.5 | -6
Cc1ccc(C2=NNC(c3ccc(Cl)cc3)=Nc3ccccc32)o1 | 3.3% | -0.2 | 1
Cc1ccc2[nH]c(=O)c(CN(Cc3ccco3)S(=O)(=O)c3c(C)ccc4nsnc34)cc2c1 | · | 1.1 | -12
CCCCN(C)C(=O)C1CCC(CNS(=O)(=O)c2ccc3c(c2)CC(C)N3C(C)=O)CC1 (stereo unspecified) | -0.4%&2.2% | -1.3&1.3 | -5&0
C[C@H](CO)N1C[C@H](C)[C@@H](CN(C)C)Oc2c(NC(=O)C3CC3)cccc2C1=O | -0.1% | -0.5 | -12

Further structures:
SMILES	Six1-Eya2 blk	D2 PAM	PINK1 expr mod	D2 ag	TRPML1 inh	TRPML1 ag
O=C(CCCn1c2ccccc2c(=O)c2ccccc21)Nc1cccc(Cl)c1	·	·	5.4%	·	27	0.7
COC(=O)CN1C(=O)[C@H]2[C@@H](/C=C/c3ccccc3)N3C(=O)CN(Cc4ccccn4)C(=O)[C@@]3(Cc3ccccc3)[C@H]2C1=O	3	-14	-0.7%	-2.4	2	0.0
COc1cccc(NC(=O)N2CCc3ccccc3C2)c1	5	-15	0.5%	-1.4	18	1.1
COc1cccc(-c2nc(CS(=O)(=O)CC(=O)NC3CC3)c(C)o2)c1	2	-6	0.0%	-1.9	7	-0.8
COc1cc(NC(=O)CN2CCC(C)CC2)c(C)cc1[N+](=O)[O-]	-3	-13	1.9%	-2.7	47	-0.2
Cc1ccc(C(=O)NNC(=O)CSc2nnc(C(C)C)n2C)cc1	0	2	2.5%	1.2	26	0.4
COc1ccc(-c2nn(-c3ccccc3)cc2/C=N/NC(=S)NC(C)C)cc1OC	-27	-17	6.3%	-6.1	2	1.0
CCOC(=O)C1(C)CCN1C(=O)COc1ccc(C(C)(C)C)cc1 (stereo unspecified)	2	-12	3.0%	-2.9	39	0.3
O=C1CCCc2cc(S(=O)(=O)NCC3CCC(C(=O)NCc4ccc(F)cc4)CC3)ccc2N1 (stereo unspecified)	·	·	0.3%	·	-17	0.6
O=c1oc2cc(Cl)ccc2n1CSc1nc2ccccc2s1	22	-2	6.1%	2.0	-21	0.6
COC(=O)c1ccc(Cl)cc1NC(=O)/C=C/c1ccc(C)o1	4	-5	3.1%	0.7	-11	-0.4
CCN(CC)C(=O)COc1ccc2oc(C)c(C(=O)OC(C)C)c2c1	-1	-5	-1.5%	-4.4	5	1.7
NCCOc1ccccc1Cc1ccccc1	5	-37	-0.4%	-8.0	21	0.3
CN(C)c1ccc(CNC(=O)Cn2ccc3cc(S(=O)(=O)N4CCCCCC4)ccc32)cc1	·	·	-1.8%	·	-12	-0.7
CN(Cc1ccc(OC(F)F)cc1)C(=O)c1cccc(S(=O)(=O)N2CCN(c3ccccc3)CC2)c1	-6	1	1.5%	3.0	17	2.0
CS(=O)(=O)N(CC(=O)NCc1cccnc1)C1CCCCC1	7	2	-0.4%	-1.2	-11	-1.2
COc1cc(/C=N/NC(N)=O)ccc1OC(=O)c1cccs1	0	0	-0.1%	4.3	-9	1.1
C/C(=N\NC(=O)CNC(=O)c1cccnc1)c1cccc(O)c1	-9	-12	0.3%	-8.3	8	0.4
COc1cc(-c2nc(-c3cccc(C)c3)no2)cc(OC)c1OC	11	0	1.3%[38.3 µM]	0.3	-25	1.1
CCOC(=O)N1CCC(NC(=O)C2CCCN(S(C)(=O)=O)C2)CC1 (stereo unspecified)	-1	-7	?	0.0	-1	0.5
COc1ccc(NC(=O)C/C(C)=N/NC(=O)c2cnccn2)c(OC)c1	-10	-4	1.8%	-1.7	-2	0.5
Cn1nnnc1SCC(=O)NCCCc1ccccc1	10	2	-1.5%	-1.7	22	-1.1
CCNC(=O)CC1C(=O)N(c2ccc(F)cc2)C(=O)N1Cc1ccc(C)cc1 (stereo unspecified)	·	·	0.8%	·	13	-0.4
O=C(c1c(F)c(F)c(F)c(F)c1F)N1CCc2ccccc21	0	6	0.8%	-5.3	31	-0.3
C=CC[n+]1c(C)csc1Nc1ccc(C)cc1	-26	-5	0.7%	0.0	-1	4.3
CCOc1ccccc1N1CCN(S(=O)(=O)c2cc(C)ccc2OC)CC1	-2	-2	0.5%	11	-6	3.4
O=C(CNC(=O)c1cccnc1)N/N=C/c1ccc(O)cc1O	-72*	-13	1.3%	-2.6	5	0.4
COc1cc(NC(=O)C(CC(C)C)NS(=O)(=O)c2ccc3c(c2)oc(=O)n3C)c(C(=O)O)cc1OC (stereo unspecified)	·	·	0.6%	·	37	-0.3
COc1cc(/C=N/NC(=O)COc2cc(C)cc(C)c2)ccc1OS(=O)(=O)c1ccc(C)cc1	9	5	-2.0%	4.7	-4	0.1
COc1ccc2oc(C(=O)N(C)Cc3ccc4c(c3)OCCO4)c(C)c2c1	0	10	-0.3%	?	1	1.0
Cc1nn(Cc2ccc(F)cc2)c(C)c1NC(=O)c1cc(-c2ccco2)on1	0	-2	?	2.6	1	-0.3
CCOC(=O)N1CCN(C(=O)C2CCCN(S(=O)(=O)c3c(C)cc(C)cc3C)C2)CC1 (stereo unspecified)	2	1	-1.1%	-3.1	7	2.4
CCOc1cc2c(cc1/C=C1/NC(=O)N(CC(=O)OC)C1=O)OCO2	0	-5	4.9%	-6.4	-4	-0.6
COc1ccc(C(=O)NCCNc2nc3ccc(C)cc3cc2C#N)cc1	2	21	8.1%	0.9	·	·
CC(=O)NC1C(OCc2ccccc2)OC(CO)C(OC(C)=O)C1OC(C)=O (stereo unspecified)	1	0	2.6%	-3.5	0	0.8
C[N+](C)(C)CCCCCC(=O)/C=N/O	-4	2	3.0%	2.7	2	-0.5
Cc1onc(-c2c(F)cccc2Cl)c1C(=O)N(C)CC(=O)Nc1cccc(F)c1	-4	-12	0.3%	0.2	8	0.5
NC(=O)C[C@H](NC(=O)c1ccc(Cl)cc1)C(=O)OCc1ccccc1	-3	0	2.2%	0.0	21	-1.1
Cn1nnnc1SCCNCc1ccc(Cl)cc1	5	-15	-2.0%[38.3 µM]	-0.9	1	0.8
O=C(Cc1cccs1)Nc1nnc(-c2ccc(F)cc2)s1	7	-1	4.3%	-3.7	-13	0.2
COc1ccc(-c2[nH]ncc2C(=O)NCc2ccccc2OC)cc1	·	·	-0.7%	·	-16	-0.3
COc1cc(-c2noc(CCCC(=O)Nc3cccnc3)n2)cc(OC)c1OC	-18	-2	4.0%	-3.1	-23	-0.9
CC1Sc2ccc(S(=O)(=O)N3CCC(C(=O)Nc4cccc(Cl)c4)CC3)cc2NC1=O (stereo unspecified)	-2	-37	?	2.5	-2	0.7
Cc1ccc(S(=O)(=O)N2CCN(C(=O)COC(=O)c3ccccc3Cl)CC2)c(C)c1	-1	-3	2.6%	-1.4	19	3.3
NC(=O)C(Cc1ccccc1)NS(=O)(=O)c1ccc(N2CCCC2=O)cc1 (stereo unspecified)	-5	-10	-0.4%[38.3 µM]	-1.6	-17	-0.4
CCOC(=O)c1c(-c2ccc(F)cc2)cn2ccccc12	-1	1	3.9%	-13	4	-0.5
O=[N+]([O-])c1cccc(NC(=S)NCc2ccncc2)c1	-4	-3	3.6%	2.4	28	0.2
CCN(CC)C(=O)c1sc2c(c1C)c(=O)n(Cc1ccccc1)c(=O)n2Cc1ccc(Cl)cc1	·	·	5.2%	·	76	1.3
COCCn1c(SCC(=O)c2ccccc2)nc2c(c1=O)SCC2	-8	-6	-0.4%	3.0	-3	0.6
C=C1CCN([C@H](C(=O)NCc2ccccc2)C(C)C)S(=O)(=O)c2ccccc21	-1	-9	0.2%	-5.7	-5	1.3
Cc1ccc(N/C(C(Cl)=C(Cl)Cl)=C(/Cl)[N+](=O)[O-])c(C)c1	3	-9	10%	4.1	-5	0.1
Cc1cc(C)c(OCC(=O)OCC(=O)NCc2ccco2)c(C)c1	-17	0	2.2%	-0.4	4	-0.6
COc1ccc(OCCOC(=O)c2cccc(-n3cnnn3)c2)cc1	-4	7	-0.1%	-1.7	12	-0.5
COc1ccc(C(=O)COC(=O)c2c(C)noc2C)cc1Cl	20	-3	7.5%	1.3	-9	0.8
CCOc1ccccc1Nc1nc2ccccc2nc1NS(=O)(=O)c1ccc(Cl)cc1	·	·	-3.2%	·	17	0.0
COc1ccc(C(=O)n2nc(-c3ccccc3)nc2N)cc1OC	-3	5	9.3%	3.1	-1	0.7
Cc1ccc(C(c2nnnn2CS(=O)(=O)c2ccc(C)cc2)N2CCCC2)cc1 (stereo unspecified)	7	-8	-0.1%	7.7	24	5.1
CCCCC#Cc1ccc(C(=O)NNC(=O)Nc2ccccc2)o1	-19	-10	2.4%	-0.9	-16	-0.5
Cc1ccc(SCC(=O)Nc2ncc(C)s2)cc1	-3	-10	-0.5%	-1.2	0	1.5
O=c1[nH]c2c(s1)C(c1ccccc1)C1C3CCC(C3)C1S2 (stereo unspecified)	-13	-5	2.5%	-4.3	-11	1.3
